rRNA inh HTS = reduced GFP signal of wild-type E. coli, primary screen, bacterial rRNA inhibitor project, GFP/RFP fluorescence, OD600, single point; 350,000 tested, 1.6% active; AID 720706, 2013; E. coli WT GFP vs humanized-ribosome RFP mutants, 24 h; active compounds read low; DMSO median 0, no signal -100; GFP signal change (wild-type ribosome), % (concentration not given with the values);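 active means significant combined selectivity score with lowered wild-type GFP, culture density cut under 30%, mutant RFP and density less affected; inactive means any of these conditions unmet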; further: one replicate is shown; some compounds called inactive have numbers as strong as hits
FGF22 binding = binders of human FGF22 protein, primary screen, FGF22 synaptogenesis inhibitor project, biophysical, thermal shift, single point; Fibroblast growth factor 22 (Homo sapiens), Q9HCT0; recombinant FGF22 thermal shift, SYPRO orange fluorescence; percent of sucrose octasulfate shift, DMSO zero; calls only at 9.99 µM; 340,000 tested, 1.5% active;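 active means melting point raised past a set limit in the mean and every replicate; inconclusive means no clear call; three in four hits are not shown here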
Target sequence (Q9HCT0 whole entry, looked up): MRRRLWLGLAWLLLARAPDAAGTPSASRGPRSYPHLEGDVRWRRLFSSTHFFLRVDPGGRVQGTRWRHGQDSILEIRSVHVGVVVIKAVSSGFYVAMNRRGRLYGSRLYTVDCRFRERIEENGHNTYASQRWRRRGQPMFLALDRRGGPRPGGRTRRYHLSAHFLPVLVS
HNF4A DNA FP = change in binding of human HNF4A to DNA, primary screen, biochemical, fluorescence polarization, FITC-DNA; 1 h; activity change, % at 10 µM; 360,000 tested, 0.3% active; AID 1224865, 2016; in the data active means activity change above about 30%, passing the limit was not always enough;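 further: controls were the assay level and a saturating level of protein; the project sought stronger binding though the title names inhibitors; some compounds called inactive have numbers as strong as hits; positive values seem to mean higher polarization but the record does not say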
UCH37 inh = inhibitors of human UCH37 deubiquitinase, primary screen, biochemical, Ub-AMC cleavage, fluorescence | Ubiquitin carboxyl-terminal hydrolase isozyme L5 (Homo sapiens), Q9Y5K5 | purified proteasome/UCH37 | inhibition, % (test concentration not listed) | 330,000 tested, 0.33% active;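 active means mean of two replicates above 20%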;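 further: 0% = compound-free wells with enzyme and 100% = wells lacking proteasome; stock transfer was 100 nL into about 20 µL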
Target sequence (Q9Y5K5 whole entry, looked up): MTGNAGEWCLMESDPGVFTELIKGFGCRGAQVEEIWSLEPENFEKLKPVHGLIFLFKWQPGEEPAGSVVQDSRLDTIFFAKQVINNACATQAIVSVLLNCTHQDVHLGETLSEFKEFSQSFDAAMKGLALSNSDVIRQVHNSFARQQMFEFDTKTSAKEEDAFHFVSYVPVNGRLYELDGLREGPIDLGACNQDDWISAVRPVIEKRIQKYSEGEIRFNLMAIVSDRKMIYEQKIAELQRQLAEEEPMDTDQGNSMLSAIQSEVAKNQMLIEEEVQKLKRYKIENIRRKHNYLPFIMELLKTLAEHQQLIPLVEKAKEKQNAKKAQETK
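Material: human UCH37 enzyme supplied as purified proteasome complex. Measure: % inhibition of Ub-AMC cleavage fluorescence. Medium: pH 7.4 Tris-HCl (50 mM) with ovalbumin, ATP-MgCl2, DTT. Times: 30 min preincubation with enzyme, 25 min cleavage at room temperature. Detection: AMC fluorescence intensity at 355/460 nm.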
ALR inh = inhibitors of human ALR sulfhydryl oxidase, primary screen, biochemical, H2O2 detection, HRP-luminol luminescence, single point. purified ALR, DTT oxidation. AID 485317, 2010. FAD-linked sulfhydryl oxidase ALR (Homo sapiens), P55789. 290,000 tested, 3.8% active. inhibition, % (no concentration beside the values);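 active means mean and each replicate at 75% or more; inconclusive means only one of the two met; inactive means neither met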;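 further: stock transfer was 7.5 nL into about 7.5 µL; 0% = neutral wells and 100% = wells with inactivated enzyme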
E coli growth = E. coli growth inhibition, primary screen, OD600 | OD600 absorbance (no concentration beside the values) | AID 1053175, 2014 | Escherichia coli growth, 23 h; active compounds read low | 330,000 tested, 0.21% active;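 active means OD600 absorbance below the run mean of sample wells minus 3.6 SD, in any replicate, cut at about 0.56 in these data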;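 further: stock transfer was 300 nL into about 60 µL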
Beta2AR agonist = beta2AR agonists driving receptor internalization, primary screen, cell-based, FAP fluorogen, flow cytometry. Am2.2-beta2AR cells; reference of the scale not given here. response, % (concentration not given with the values). 340,000 tested, 0.43% active. AID 504454, 2011;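 active means response above a set limit, near 3 SD of response in nonfluorescent compounds, cut at about 42% in these data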;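 further: stock transfer was 100 nL into about 11 µL; a reference agonist was the positive control; negative values mostly stem from fluorescent compounds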
Target sequence (P07550 whole entry, looked up): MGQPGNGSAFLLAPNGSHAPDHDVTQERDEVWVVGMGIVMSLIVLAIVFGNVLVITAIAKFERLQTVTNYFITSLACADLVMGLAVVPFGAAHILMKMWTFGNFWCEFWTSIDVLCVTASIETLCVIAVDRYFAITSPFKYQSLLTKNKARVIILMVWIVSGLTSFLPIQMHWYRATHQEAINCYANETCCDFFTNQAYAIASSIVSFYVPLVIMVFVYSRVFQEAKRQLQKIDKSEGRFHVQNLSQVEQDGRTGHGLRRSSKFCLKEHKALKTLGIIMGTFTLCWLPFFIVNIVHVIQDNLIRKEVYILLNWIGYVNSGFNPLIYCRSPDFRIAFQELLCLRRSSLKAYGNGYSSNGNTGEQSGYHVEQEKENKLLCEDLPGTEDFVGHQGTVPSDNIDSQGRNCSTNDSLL
rRNA inh HTS OD600 = second read-out of rRNA inh HTS, no call of its own (marks repeat the call); OD600 change, %; measured here: OD600 growth;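 optical density of the mix in the first replicate; 0 = DMSO median and -100 = no signal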
rRNA inh HTS RFP = recorded beside rRNA inh HTS, whose call it bears; RFP signal change, %; measured here: RFP humanized mutant strains;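 first replicate; 0 = DMSO median and -100 = no signal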
Numbers without * were called inactive; i = inactive; ? = inconclusive; · = no result given; & = joins results of further samples.

SMILES	rRNA inh HTS	rRNA inh HTS OD600	rRNA inh HTS RFP	FGF22 binding	HNF4A DNA FP	UCH37 inh	ALR inh	E coli growth	Beta2AR agonist
CC1=C(C(=O)N2CCOCC2)CC(CC(=O)NCc2ccco2)C(=O)N1CCC1=CCCCC1 (stereo unspecified)	12	1	2.7	i	6.5	·	·	·	·
Cc1occc1C(=O)Nc1cc(=O)n(C)c(=O)n1C	·	·	·	·	-7.4	0.8	0	0.67	1
COC(=O)C1=C(C(=O)OC)C(c2ccccc2O)c2sc(=O)[nH]c2S1 (stereo unspecified)	-4	1	5.2	i	0.5	3.2	22	0.65	100*
Cc1ccc(S(=O)(=O)NCCCNC(=O)N2CCOCC2)cc1	·	·	·	·	-3.0	1.7	-9	0.72	6
CC(C)CC(=O)NC(=S)Nc1ccc(S(=O)(=O)NC(C)(C)C)cc1	·	·	·	i	0.7	3.3	10	0.64	-25
COc1cccc(-n2c(SCC(=O)N3c4ccccc4CC3C)nnc2-c2ccco2)c1 (stereo unspecified)	·	·	·	·	-0.3	-1.5	-9	0.76	-8
C[C@H](CO)N1C[C@H](C)[C@@H](CN(C)S(=O)(=O)c2cccs2)Oc2ccc(NC(=O)CCC(F)(F)F)cc2C1=O	1&-7	1&0	0.1&-0.9	i	-1.3	2.4	1	0.71	9
CCCC(NS(=O)(=O)c1ccc(OC)cc1)C(=O)O (stereo unspecified)	·	·	·	·	-0.8	0.4	-11	0.67	-2
CC1(C(=O)NCC2CC2)CCN1C(=O)C1(c2ccc(Cl)cc2)CC1 (stereo unspecified)	-7	-13	-5.5	i	1.4	·	·	·	·
Cc1ccc(NC(=O)CNC(=O)c2ccco2)cc1Cl	-7	-3	0.1	i	-0.1	4.2	-1	0.58	-1
OCCC1CN(CCCc2ccccc2)CCN1Cc1ccc(F)cc1 (stereo unspecified)	6	6	1.7	i	0.7	1.2	-12	0.62	-2
Cc1ccc(NC(=O)c2ccc(COc3ccccc3)o2)nc1	-6	5	4.2	i	-0.9	3.2	-4	0.7	-1
CCOC(=O)c1[nH]c2ccccc2c1NC(=S)Nc1cccc(C)c1	1	2	2.3	i	2.9	5.0	98*	0.72	1
CC(NCCN(C)C)C(=O)C12CC3CC(CC(C3)C1)C2 (stereo unspecified)	9	-3	-0.3	i	0.1	5.3	-16	0.66	1
C=CCn1c(SCC(=O)Nc2ccc3c(c2)OCO3)nnc1-c1cc(Br)ccc1O	·	·	·	·	0.7	1.2	9	0.66	1
CCOCCCNC(=O)c1ccc2c(=O)n(Cc3ccc4c(c3)OCO4)c(=S)[nH]c2c1	15	7	-0.8	i	-2.1	2.6	7	0.73	2
COc1ccc(NC(=O)CSc2ccc(F)cc2)cc1S(=O)(=O)N1CCCCC1	·	·	·	·	0.9	1.8	-2	0.69	8
COc1ccc(-n2cc(CN3CCC(OC)CC3)c(-c3cccc(F)c3)n2)cc1	15	2	0.4	i	0.0	-0.1	1	0.7	-15
O=C(COc1ccc2c3c(c(=O)oc2c1)CCCC3)N1CCN(c2ccccc2)CC1	-8	-6	-0.7	i	0.1	-1.6	-1	0.7	-8
O=C(CC12CC3CC(C1)CC(CC(=O)NC1=NCCS1)(C3)C2)NC1=NCCS1	·	·	·	·	0.4	-0.2	·	0.69	-4
COC(=O)C(O)(NC(=O)c1ccncc1)C(F)(F)F (stereo unspecified)	14	6	1.7	i	-0.1	2.8	-1	0.67	0
CCn1c(SCC(=O)O)nc2sc3c(c2c1=O)CCC3	·	·	·	·	-7.2	5.6	-2	0.72	0
O=C(NC(=S)N1CCCCC1CO)C12CC3CC(CC(C3)C1)C2 (stereo unspecified)	4	4	-1.3	i	-3.1	4.5	-8	0.71	-5
Cc1nc2cc3c(cc2s1)OCO3	3	7	0.0	i	1.2	1.1	·	0.64	-1
O=C(Nc1ccc(N2CCN(C(=O)c3ccc(Cl)cc3)CC2)cc1)c1cc2ccccc2o1	·	·	·	·	1.6	-1.9	0	0.67	6
COc1cc(OC)cc(C(=O)OC/C(O)=C(\C#N)c2nc3ccccc3[nH]2)c1	3	13	7.6	i	9.2	-0.3	·	0.73	10
COC(=O)C1=C(C)NC(C)=C(C(=O)OC)C1C(=O)OCc1nnc(-c2ccccc2Cl)o1	1	3	-2.9	i	1.1	-27	·	0.7	7
CC12CC(c3ccccc3O1)C(/C(N)=N/NC(=O)c1ccc(F)cc1)C(=O)N2 (stereo unspecified)	·	·	·	i	0.1	-1.3	-6	0.64	-3
CCOP(=O)(OCC)C1NC(=O)N(c2ccccc2)C1=O (stereo unspecified)	8	8	0.7	i	-0.1	-0.4	5	0.67	2
O=S(=O)(NC1CCN(S(=O)(=O)c2c(F)cccc2F)CC1)c1ccc2c(c1)OCCO2	-3	-9	-4.2	i	-3.9	0.8	-3	0.71	-2
O=C1c2cc([N+](=O)[O-])ccc2-c2cc(Br)c(N=C(NO)C(F)(F)F)cc21	-13	-25	2.3	i	19	·	·	·	-4
CCc1ccc(NC(=O)c2cnn(-c3ccccc3)c2C)cc1	·	·	·	·	-0.2	4.6	-7	0.65	9
CN(CC(=O)Nc1ccccc1Cl)C(=O)COC(=O)CSc1ccc(Cl)cc1	-9	-1	11	i	2.8	0.3	-8	0.65	-1
O=C(NC(Cc1ccccc1)C(=O)O)/C(=C/c1cccc(Br)c1)NC(=O)c1ccco1 (stereo unspecified)	6	13	1.1	i	-2.4	·	7	·	10
CSc1nnc(-c2ccc(NC(N)=S)cc2)o1	10	10	12	i	-5.0	-12	·	0.61	2
O=C(CSCc1ccccc1)NNC(=S)Nc1cccc(Cl)c1Cl	·	·	·	·	-1.9	2.0	12	0.69	-16
CS(=O)(=O)N(CC(=O)Nc1ccccc1C(=O)N1CCOCC1)c1ccc2c(c1)OCO2	·	·	·	·	-4.2	-1.9	-6	0.67	1
O=C(C[C@@H]1CC[C@H](NC(=O)c2ccc3c(c2)OCO3)[C@@H](CO)O1)NCc1ccc(F)cc1	-1&7	-5&7	-0.3&2.6	i	-0.2	·	·	·	·
O=C(c1cc2ccccc2oc1=O)N(Cc1cccs1)Cc1cccs1	·	·	·	·	-3.4	1.9	-10	0.66	-11
O=C(NCc1ccco1)c1csc2c1CCCC2	0	-9	-0.8	i	-0.7	3.2	0	0.71	-2

Reprinted at random: 4 entries already listed.
SMILES	rRNA inh HTS	rRNA inh HTS OD600	rRNA inh HTS RFP	FGF22 binding	HNF4A DNA FP	UCH37 inh	ALR inh	E coli growth	Beta2AR agonist
CS(=O)(=O)N(CC(=O)Nc1ccccc1C(=O)N1CCOCC1)c1ccc2c(c1)OCO2	·	·	·	·	-4.2	-1.9	-6	0.67	1
C[C@H](CO)N1C[C@H](C)[C@@H](CN(C)S(=O)(=O)c2cccs2)Oc2ccc(NC(=O)CCC(F)(F)F)cc2C1=O	1&-7	1&0	0.1&-0.9	i	-1.3	2.4	1	0.71	9
COC(=O)C1=C(C)NC(C)=C(C(=O)OC)C1C(=O)OCc1nnc(-c2ccccc2Cl)o1	1	3	-2.9	i	1.1	-27	·	0.7	7
CC1(C(=O)NCC2CC2)CCN1C(=O)C1(c2ccc(Cl)cc2)CC1 (stereo unspecified)	-7	-13	-5.5	i	1.4	·	·	·	·

Back to the main list, starting two compounds before the break.
SMILES	rRNA inh HTS	rRNA inh HTS OD600	rRNA inh HTS RFP	FGF22 binding	HNF4A DNA FP	UCH37 inh	ALR inh	E coli growth	Beta2AR agonist
O=C(c1cc2ccccc2oc1=O)N(Cc1cccs1)Cc1cccs1	·	·	·	·	-3.4	1.9	-10	0.66	-11
O=C(NCc1ccco1)c1csc2c1CCCC2	0	-9	-0.8	i	-0.7	3.2	0	0.71	-2
CC(=O)Nc1ccc(C(=O)Nc2ccncc2)cc1	6	7	0.3	i	-5.0	1.3	-2	0.69	6
COc1ccc(C)cc1NC(=O)c1cc2c(CO)cnc(C)c2oc1=N	-2	-2	8.7	i	3.5	5.5	86*	0.78	5
Nc1nc(SCC(=O)NCCc2ccccc2)[nH]c(=O)c1-c1ccccc1	13	18	-0.3	i	·	0.6	-1	0.67	·
CCOC(=O)c1nn(-c2ccccc2)c2nnc(Cc3ccc(Cl)cc3)c(=O)n12	·	·	·	·	-1.6	1.4	-2	0.71	1
CC1Cc2cc(S(=O)(=O)CCC(=O)NC3CCCCC3)ccc2N1C(=O)C1CC1 (stereo unspecified)	4	10	0.2	i	-1.5	1.4	-8	0.67	-9
O=C(Cn1c(=O)oc2ccccc21)N1CCN(c2ccccc2)CC1	·	·	·	·	3.5	2.0	2	0.7	-33
CC(CC(=O)Nc1cccc(F)c1)S(=O)(=O)c1ccc2c(c1)NC(=O)CO2 (stereo unspecified)	-1	3	-1.7	i	0.9	6.5	-5	0.67	-3
Cc1ccc(C2CC(c3cccc(Br)c3)Nc3nnnn32)cc1 (stereo unspecified)	·	·	·	·	-1.9	2.1	-38	0.68	-2
CCOC(=O)CSc1nnnn1-c1cccc2ccccc12	·	·	·	·	-0.7	2.1	-8	0.71	7
CC(=O)c1c[nH]c(C(=O)Nc2ccc(N3CCCCCC3)cc2)c1	2	-3	-0.6	i	4.2	1.1	?	0.66	4
CCCCCCCCN1C(=O)[C@H](CC(=O)NCCCC)C[C@@]2(C(=O)OC)CC(C)(C)CC=C12	15	15	3.8	i	2.2	·	·	·	·
Cc1ccc(/C(N)=N/OC(=O)c2cc(-c3ccccc3)nc3ccccc23)cc1	·	·	·	·	1.9	4.3	-14	0.68	1
CCn1c(SCC(=O)Nc2nc(C)cs2)nnc1-c1cccnc1	·	·	·	·	-0.9	2.8	-5	0.72	1
Cn1nc(CC(=O)NC2CCCCC2)c2ccccc2c1=O	·	·	·	·	-1.1	1.0	-5	0.73	3
Cc1ccc(CN2C(=O)CCC2(C)c2nnnn2Cc2ccccc2)cc1 (stereo unspecified)	1	-4	1.8	i	5.3	·	·	·	·
COc1nccnc1NS(=O)(=O)c1ccc(N=Cc2c(C)[nH]n(-c3ccc(C)c(C)c3)c2=O)cc1	·	·	·	·	-3.5	9.4	60	0.54	6
CCOc1ccccc1NC(=O)[C@@H](NC(=O)c1ccccc1F)C(C)C	3	8	-2.2	i	1.1	2.4	-3	0.69	2
CCCCCCN1CC(O)=C(c2ccccc2)C1=N	·	·	·	·	3.5	-0.4	·	0.73	1
CC(CNC(=O)CCc1ccccc1)NC(=O)CCc1ccccc1 (stereo unspecified)	22	16	2.4	i	0.2	3.9	-14	0.65	0
Cc1ccc(-c2ccc(S(=O)(=O)N3CCN(C)CC3)cc2)cc1	·	·	·	·	1.5	3.7	0	0.72	-4
O=C(c1cc(-c2cccs2)nc2ccccc12)N1CCN(CCO)CC1	6	17	0.8	i	1.8	-368	·	0.7	-2
COc1ccc(/C([O-])=C(/C(=S)Nc2ccc(C)c(C)c2)n2c[n+](C)c3ccccc32)cc1OC	-18	-25	-0.9	i	0.2	11	15	0.69	10
O=[N+]([O-])c1ccccc1/C=N/n1c(-c2cccnc2)n[nH]c1=S	·	·	·	·	1.0	·	31	·	4
Cn1cccc1C(=O)NCC1CCCCC1	5	6	-1.7	i	4.2	0.8	-6	0.63	9
CCOC(=O)Cn1nc(CC)c2ccccc2c1=O	·	·	·	·	1.1	2.1	-14	0.68	-7
COc1ccc(OC)c(NC2=NC3(CCCCC3)N=C(N)N2)c1	·	·	·	·	0.0	1.6	-29	0.75	1

A portion of the library, so the mix of outcomes need not match the whole.
